CDC25B CDK2 inh: human CDC25B-CDK2/CyclinA binding inhibition; P30305+P24941; HTRF CDC25B-CDK2/CyclinA binding, anti-His/anti-Flag; active compounds read high; z-score (test concentration not listed); 94,000 tested, 0.72% active; AID 1259370;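 also: score is relative to mean and SD of negative controls; strong numbers were not always called active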
HIV TAR-Tat: HIV-1 TAR-Tat binding disruption; z-score (concentration not given with the values); HIV-1 TAR RNA, Tat peptide displacement FRET; active compounds read high; 100,000 tested, 0.6% active;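 also: score is relative to mean and SD of negative controls; some compounds called inactive have numbers as strong as hits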
Starred values were filed as active, the others as inactive; . = no result given.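 The calls were made as follows: active = z-score from 3 up in half or more of its runs; inactive = the rest.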

Every second line gives: CDC25B CDK2 inh | HIV TAR-Tat
> CC(C)C1OCC2(COC(=O)c3cccnc3)COC(C(C)C)N12 (stereo unspecified)
→ -1 | .
> O=C(O)c1c2c(nc3ccccc13)CCNC2
→ -1.1 | .
> CN1CCN(c2ncc(C#N)c(N)n2)CC1
→ -2.6 | .
> Nc1ccc(CCN2CCN(c3cccc(C(F)(F)F)c3)CC2)cc1
→ -1.1 | .
> CCN1C[C@]2(C)CC[C@H](O)[C@@]34C5C[C@@H]6[C@@H](OC)C[C@@](O)(C5[C@H]6O)[C@@H](CC23)[C@@H]14 (stereo partly specified)
→ . | 2.3
> O=S1OCC2C(CO1)C1(Cl)C(Cl)=C(Cl)C2(Cl)C1(Cl)Cl (stereo unspecified)
→ . | -0.3
> S=P(Oc1ccccc1)(Oc1ccccc1)Oc1ccccc1
→ -1.6 | .
> CCc1cccc(C)c1N(C(=O)CCl)C(C)COC (stereo unspecified)
→ . | 0.4
> CC1(C)NCCN2C(=O)CSC21 (stereo unspecified)
→ 0.59 | .
> c1coc(CNCCc2ccc3c(c2)OCO3)c1
→ -0.82 | 0.45
> FC(F)(F)c1nnc(N2CCNCC2)s1
→ -1.6 | 0.8
> Cc1[nH]c2ccccc2c(=O)c1CN1CC2(C)CC1CC(C)(C)C2 (stereo unspecified)
→ -2 | .
> CC1c2cccn2-c2ccccc2CN1C(=O)Nc1cc(F)ccc1F (stereo unspecified)
→ . | 1
> FC(F)(F)c1ccc2c(c1)nnn2C1CCNCC1
→ -1.1 | .
> CP(=O)(O)C1=CCNCC1
→ -0.17 | .
> Cc1cccc(C2c3cccn3-c3ccccc3CN2C(=O)NC(C)C)c1 (stereo unspecified)
→ . | -0.46
> O=C(Nc1cccc(Cl)c1)N1Cc2ccccc2-n2cccc2C1c1cccs1 (stereo unspecified)
→ . | 0.23
> CSc1nc(OC(=O)N(C)C)cc(-c2ccccc2)n1
→ -2.5 | .
> CC1(C)Cc2nc(N3CCCC3)c(C#N)cc2CS1
→ -1.8 | 0.51
> NC(N)=NOCCC(N)C(=O)O (stereo unspecified)
→ -2.8 | .

One compound at a time, from the list above. Values in the order: CDC25B CDK2 inh	HIV TAR-Tat
O=C(Nc1cccc(Cl)c1)N1Cc2ccccc2-n2cccc2C1c1cccs1 (stereo unspecified) as listed: .	0.23
NC(N)=NOCCC(N)C(=O)O (stereo unspecified) as listed: -2.8	.
FC(F)(F)c1nnc(N2CCNCC2)s1 as listed: -1.6	0.8
Cc1cccc(C2c3cccn3-c3ccccc3CN2C(=O)NC(C)C)c1 (stereo unspecified) as listed: .	-0.46
CSc1nc(OC(=O)N(C)C)cc(-c2ccccc2)n1 as listed: -2.5	.

(next part)
Every second line gives: CDC25B CDK2 inh | HIV TAR-Tat
> CN1CCN(c2ncnc3nc[nH]c23)CC1
→ -0.99 | .
> Cc1cccc(C2c3cccn3-c3ccccc3CN2C(=O)NC2CCCC2)c1 (stereo unspecified)
→ . | 0.24
> Cc1ccc2c(c1)-c1cc(C)nn1C(c1cccnc1)N2 (stereo unspecified)
→ 0.84 | 1.4
> CN1CSC(=S)N(C)C1
→ -0.72 | .
> CCCNC(=O)Cn1cnc2sc(C(=O)N3CCC4(CC3)OCCO4)c(C)c2c1=O
→ -0.84 | .
> CCN1CCN(c2ccc3nnc(C)n3n2)CC1
→ -2.1 | 1.8
> COc1ccc(C2N3CCCN23)cc1OC (stereo unspecified)
→ 0.68 | 0.58
> Cc1nn(C)c(N)c1C1=CCN(C)CC1
→ -3 | -0.19
> COc1ccc2c(c1OC)CN1CCc3cc4c(cc3C1C2)OCO4 (stereo unspecified)
→ . | -5.4
> N[C@H](CO)Cc1ccccc1
→ . | 0.72
> COc1cc2c3cc1Oc1c(OC)c(OC)cc4c1[C@@H](Cc1cccc(c1)Oc1ccc(c(O)c1)C[C@@H]3N(C)CC2)N(C)CC4
→ . | 0.31
> O=C(Nc1ccccc1F)N1Cc2ccccc2-n2cccc2C1c1cccs1 (stereo unspecified)
→ . | -0.23
> Cc1cccn2c(=O)c3cc(C#N)c(=O)n(-c4nnc(SCc5ccccc5Cl)s4)c3nc12
→ -1.1 | 0.5
> C[C@H]1O[C@@H](O[C@H]2[C@@H](O)C[C@H](O[C@H]3[C@@H](O)C[C@H](O[C@H]4CC[C@@]5(C)[C@H](CC[C@@H]6[C@@H]5CC[C@]5(C)[C@@H](C7=CC(=O)OC7)CC[C@]65O)C4)O[C@@H]3C)O[C@@H]2C)C[C@H](O)[C@@H]1O
→ . | 2.3
> CN1N=C(c2c(O)n(C)c(=O)n(C)c2=O)CC1c1ccccc1 (stereo unspecified)
→ 0.21 | 1.7
> O=C(NC1(C(F)(F)F)Oc2ccc(Cl)cc2O1)N1CCC2(CC1)OCCO2 (stereo unspecified)
→ 0.54 | .
> CCCCCCC(C)OC(=O)COc1ccc(Cl)cc1Cl (stereo unspecified)
→ . | 0.56
> O=C(COc1ccccc1)N1CCN(Cc2ccccn2)CC1
→ -0.3 | .
> C[N+]1(CCC(C(N)=O)(c2ccccc2)c2ccccc2)CCCCC1
→ . | 2
> CC1(C)SCN2C(=S)N(c3ccc([N+](=O)[O-])cc3)C(=O)C21 (stereo unspecified)
→ -1.5 | .
> CCOc1ccc(C2SCC(=O)Nc3c2c(=O)[nH]n3C(C)CC)cc1 (stereo unspecified)
→ 0.62 | 0.85
> CC[C@@H](CO)NC(=O)[C@@H]1C=C2c3cccc4[nH]cc(c34)C[C@H]2N(C)C1
→ 4.2* | 0.85
> O=c1c2ccccc2[se]n1-c1ccccc1
→ . | 2.1
> Cc1noc2nc(C)n(Cc3cn4ccccc4n3)c(=O)c12
→ . | 1.2
> N#CC(C#N)=Cc1csc([N+](=O)[O-])c1
→ -0.34 | .
> CC(C)N1CC=C(c2c[nH]c3ccccc23)CC1
→ -0.27 | 0.22
> C=CCOc1ccc(C2SCC(=O)Nc3n[nH]c(C)c32)cc1 (stereo unspecified)
→ -0.05 | 1.1
> CN(CCC#N)c1ccc(C=C(C#N)C#N)cc1
→ -0.95 | .
> C=CCOc1ccc(C2SCC(=O)Nc3c2c(C)nn3-c2nc(C)cc(C)n2)cc1 (stereo unspecified)
→ -1.6 | -0.04
> Cc1ccc(C2SCC(=O)Nc3c2c(C)nn3-c2ccc(F)cc2)c(C)c1 (stereo unspecified)
→ -0.85 | 0.94
> CC1(O)C[C@@]23C[C@@H](O)[C@@]4(O)[C@@H](C[C@H](O)C4(C)C)[C@](C)(O)[C@@H]2CCC1[C@H]3O (stereo partly specified)
→ . | 2.6
> Cc1nn(CC(=O)N2CCC3(CC2)OCCO3)c(=O)c2cc3sccc3n12
→ -1.2 | .
> COc1ccc2c(c1)N1C3C2[C@H](O)[C@@]2(O)C(=O)N4CCC[C@H]4C(=O)N2[C@H]3CC(C)(C)OO[C@H]1C=C(C)C (stereo partly specified)
→ . | -0.38
> N(=Nc1nn[nH]n1)Nc1nnn[nH]1
→ -1.8 | .
> CC(N)[C@H](O)c1ccc(O)c(O)c1 (stereo partly specified)
→ -3.3 | .
> Clc1ccc(CN2CCN(Cc3ccccc3Cl)CC2)cc1
→ -0.08 | 1.4
> N=C(N)c1ccc(CS(=O)(=O)F)cc1
→ -0.63 | .
> CN1CC[C@@]2(C)c3cc(O)ccc3N(C)C12 (stereo partly specified)
→ -2.8 | .
> CC1c2cccn2-c2ccccc2CN1C(=O)NCc1ccco1 (stereo unspecified)
→ . | 1.2
> Cc1c(O)c(O)cc2c1CC=C1[C@@]2(C)CC[C@@]2(C)C3C[C@](C)(C(=O)O)CC[C@]3(C)CC[C@]12C (stereo partly specified)
→ . | 3.8
> CC(=O)N1c2ccc(S(=O)(=O)N3CC4CC(C3)c3cccc(=O)n3C4)cc2CC1C (stereo unspecified)
→ . | 3.1
> CCCSP(=O)(OCC)SCCC
→ . | 2.3
> Cc1cc(C)c2c(c1)-c1cc(C)nn1C(c1cccnc1)N2 (stereo unspecified)
→ 0.99 | 1.1
> CN1C2CCC1CC(=NOC(=O)C1CCCCC1)C2
→ -1.7 | .
> O=C1CCO1
→ . | 0.72
> CN1C2CCC1CC(=NO)C2
→ -0.15 | .
> Cc1ccc(C2SCC(=O)Nc3c2c(C)nn3-c2nc(C)cc(C)n2)c(C)c1 (stereo unspecified)
→ -0.12 | 0.71
> CCCOc1ccc(C2SCC(=O)Nc3c2c(=O)[nH]n3C2CCCCC2)cc1 (stereo unspecified)
→ 0.19 | 2.5
> COc1cccc(/C=C/[N+](=O)[O-])c1OC
→ -1 | .
> COc1ccc(C2C(C#N)=C(N)Oc3c2c(=O)oc2ccccc32)cc1 (stereo unspecified)
→ -0.52 | .

(cont.)
Every second line gives: CDC25B CDK2 inh | HIV TAR-Tat
> CC1(C)C2CC(=O)[C@]3(C)C(CC[C@@]4(C)[C@H](c5ccoc5)OC(=O)[C@H]5O[C@]543)[C@@]2(C)C=C[C@@H]1O (stereo partly specified)
→ . | 13
> CN1C(=O)C(C)(C)c2cc(S(=O)(=O)N3CC4CC(C3)c3cccc(=O)n3C4)ccc21 (stereo unspecified)
→ . | 1.1
> CN(C)CC(O)c1ccc2cc[nH]c2c1 (stereo unspecified)
→ -0.72 | 0.58
> c1ccc(N2CCN(Cc3c[nH]c4ccccc34)CC2)cc1
→ 0.22 | .
> CC12NC(Cc3ccccc31)c1ccccc12 (stereo unspecified)
→ -0.55 | .
> CCC(=O)N1N=C2C3CCN(CC3)C2C1c1ccccc1 (stereo unspecified)
→ 0.35 | 0.31
> COC(=O)c1ccccc1NC(C)=O
→ -1.7 | .
> C=CCCC1(C)N2CC3(C)CN1CC(C)(C2)C3=O (stereo unspecified)
→ -0.48 | .
> O=C1CSC(c2ccc(F)cc2)c2c(n(C3CCCC3)[nH]c2=O)N1 (stereo unspecified)
→ -1.8 | 2.3
> CCN1CCN(Cc2csc(C)c2C)CC1
→ . | 0.39
> Cc1nn(-c2ccccc2Cl)c2c1C(c1ccc(N(C)C)cc1)SCC(=O)N2 (stereo unspecified)
→ -1.6 | 0.65
> O=C1CCCC2C3CC(CN12)[C@@H]1CCCCN1C3 (stereo partly specified)
→ . | 1.6
> CCCC[C@@H](C)[C@@H](OC(=O)C[C@@H](CC(=O)O)C(=O)O)[C@H](C[C@@H](C)CCCCCC[C@@H](O)C[C@H](O)[C@H](C)N)OC(=O)C[C@@H](CC(=O)O)C(=O)O
→ . | -0.2
> O=C(C1CC(c2ccc(F)cc2)=NO1)N1CCC2(CC1)OCCO2 (stereo unspecified)
→ -1.1 | .
> O=c1cccc2n1CC1CC2CN(Cc2nnc(-c3cccc(Cl)c3)o2)C1 (stereo unspecified)
→ -0.67 | 2.6
> C1=C(c2ccccc2)CCN(Cc2nnc(-c3ccc4c(c3)OCO4)o2)C1
→ -2.3 | -0.73
> CC(N)Cc1c[nH]c2ccc(F)cc12 (stereo unspecified)
→ -0.3 | .
> CC(=O)N1CCc2cc(Br)cc(S(=O)(=O)N3CC4CC(C3)c3cccc(=O)n3C4)c21 (stereo unspecified)
→ -0.16 | 0.58
> O=c1c2ccccc2nc(C(F)(F)F)n1-c1ccccc1
→ 0.1 | 0.91
> CCOC(=O)C1C2c3ccccc3C(c3ccccc32)C1C(=O)OCC (stereo unspecified)
→ -0.94 | .
> Clc1ccc(C2CC3CCC2N3)cn1 (stereo unspecified)
→ . | 0.42
> CC1Sc2ccc(S(=O)(=O)N3CC4CC(C3)c3cccc(=O)n3C4)cc2NC1=O (stereo unspecified)
→ . | 0.01
> CO[C@H]1[C@H](O)[C@@H](O[C@H]2CC[C@]3(C=O)C4CC[C@]5(C)[C@@H](C6=CC(=O)OC6)CC[C@]5(O)C4CC[C@@H]3C2)O[C@@H](C)[C@@H]1O (stereo partly specified)
→ . | -1.7
> Cc1cccc(Cl)c1NC1=NCCCS1
→ -1.5 | .
> CCC1(c2ccc(N)cc2)CCC(=O)NC1=O (stereo unspecified)
→ -0.05 | 0.18
> O=C(Cn1cc(C(=O)c2ccccc2)c2ccccc21)NCc1ccc2c(c1)OCO2
→ -3.2 | 2.5
> C[C@H]1O[C@@H](O[C@H]2[C@@H](O)C[C@H](O[C@H]3[C@@H](O)C[C@H](O[C@H]4CC[C@]5(C)C6CC[C@]7(C)[C@@H](C8=CC(=O)OC8)CC[C@]7(O)C6CC[C@@H]5C4)O[C@@H]3C)O[C@@H]2C)C[C@H](O)[C@@H]1O (stereo partly specified)
→ . | 1.4
> O=C1C=C2C(=CCOC2O)O1 (stereo unspecified)
→ . | 2.5
> Cc1noc2ncn(Cc3cn4ccccc4n3)c(=O)c12
→ . | 0.89
> CN1C2CC(OC(=O)C(CO)c3ccccc3)CC1C(O)C2 (stereo unspecified)
→ -1.1 | 2
> NC(Cn1oc(=O)[nH]c1=O)C(=O)O (stereo unspecified)
→ -0.02 | 2.4
> COc1cccc2sc(N(CCN(C)C)C(=O)COc3ccccc3)nc12
→ . | 1.7
> CCC1(C2=NCCN2)Cc2ccccc2O1 (stereo unspecified)
→ -1.8 | .
> N#CCN1CCN(c2cccc(Cl)c2)CC1
→ -1.1 | .
> CCCN1CC[C@@H]2c3cc(O)ccc3CC[C@@H]21
→ -0.79 | .
> C=CCOC(=O)C1=C(C)OC(N)=C(C(=O)OC)C12C(=O)N(C)c1ccccc12 (stereo unspecified)
→ -1.7 | .
> Cc1ccc(-c2c(N3CC4CC(C3)c3cccc(=O)n3C4)c(=O)c2=O)cc1C (stereo unspecified)
→ . | 1.5
> O=c1c2ccccc2nc(/C=C/c2ccc([N+](=O)[O-])o2)n1-c1ccc(O)cc1
→ 1 | -8.8
> CC(=O)N1N=C2C3CCN(CC3)C2C1c1ccccc1 (stereo unspecified)
→ 0.82 | -0.18
> CCCn1c(=O)c2[nH]c(C3CCCC3)nc2n(CCCOC(=O)c2ccc(S(=O)(=O)F)cc2)c1=O
→ -0.43 | .
> CCn1nc(-c2cccs2)nc2c(=O)n(C)c(=O)nc1-2
→ -1.2 | 0.04
> CC(NC(=O)Oc1ccccc1)C(c1cccs1)N1CCOCC1 (stereo unspecified)
→ -1.1 | 2.6

Screening data as filed in PubChem.

This is a subset; the hit share may differ from the screen's.
